Assay outcomes deposited in PubChem BioAssay by ICCB-Longwood Screening Facility, Harvard Medical School.
HCMV UL50-53 inh – inhibitors of HCMV UL50-UL53 interaction, biochemical, HTRF. AID 1918969, 2023. 190,000 tested, 0.15% active. HCMV UL50-UL53 nuclear egress complex (human cytomegalovirus). inhibition, % (test concentration not listed). normalized percent inhibition;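 active = both replicates at 50% or more, plus weaker picks with an unusually low signal ratio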;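 note: stock transfer was 100 nL into about 20 µL; 0% = negative control wells and 100% = wells with untagged competitor protein; inactives centre near -12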
Sa growth inh – S. aureus growth inhibition at 42 and 30 °C, primary screen, LtaS inhibitor project, RN4220, two temperatures | 170,000 tested, 0.53% active | relative growth, % (no concentration beside the values) | OD600, 20 h, 42 °C; stronger effect = lower value;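 active = growth at 42 °C up to 50% and 20 or more points under that at 30 °C, or under 10% at both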;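 note: 300 nL library stock went into each well; scaled to the means of positive and negative controls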
GIV Gai3 FP – inhibitors of GIV peptide binding to Galpha-i3, primary screen, biochemical, fluorescence polarization, FITC-GIV GBA peptide, rat Galphai3. 90 min; stronger effect = lower value; scaled: aluminum fluoride 0%, vehicle 100%. 210,000 tested, 0.42% active. Guanine nucleotide-binding protein G(i) subunit alpha-3 (Rattus norvegicus), P08753. percent of control (FP), % (test concentration not listed);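 active = replicate mean at 85% of control or lower, very high polarization wells dropped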;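 note: wells of about 15 µL received 100 nL stock; the first replicate is given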
Target sequence (P08753 whole entry, looked up): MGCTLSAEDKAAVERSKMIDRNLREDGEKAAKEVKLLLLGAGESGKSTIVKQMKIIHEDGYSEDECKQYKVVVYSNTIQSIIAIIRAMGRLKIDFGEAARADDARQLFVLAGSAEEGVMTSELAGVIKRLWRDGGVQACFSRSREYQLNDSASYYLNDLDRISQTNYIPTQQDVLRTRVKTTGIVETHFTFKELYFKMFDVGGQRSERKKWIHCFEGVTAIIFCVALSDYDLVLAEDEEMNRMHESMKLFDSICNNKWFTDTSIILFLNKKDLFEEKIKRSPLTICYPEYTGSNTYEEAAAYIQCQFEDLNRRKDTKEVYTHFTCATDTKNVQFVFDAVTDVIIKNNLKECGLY
Sa growth inh second temp – second read-out of Sa growth inh, no call of its own (marks repeat the call); relative growth, %; measured here: growth at 30 °C;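 optical density after 20 h as mean of two plates; 100% = untreated growth and lower means inhibition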
Numbers without * were called inactive; . = no result given; & = joins results of further samples.

Fields – HCMV UL50-53 inh	Sa growth inh	Sa growth inh second temp	GIV Gai3 FP
#1 CCOC(=O)/C(C#N)=C1/NC(=O)Nc2ccccc21
 : .	87.3	71.8	109.7
#2 O=C1CN(c2ccccc2)C(=O)C1C(=O)N1CCOCC1 (stereo unspecified)
 : -3.2	106.5	103.7	103.7
#3 Fc1cccc(CSc2ncc3ccccn23)c1
 : .	100.9	73.5	100.3
#4 CCc1nc(NC(=O)NS(=O)(=O)c2ccccc2C(=O)OC)nc(OC)n1
 : -17.2	91.3	87.6	104.1
#5 Nc1nc2c(c(=O)[nH]1)C(c1ccc(F)cc1)CC(=O)N2 (stereo unspecified)
 : -11.6	.	.	105.1
#6 COc1cc(NS(=O)(=O)c2ccc(NC(=O)c3ccc(Cl)cc3Cl)cc2)nc(OC)n1
 : -7.2	97.5	90.8	100.0
#7 c1ccc2c(c1)NC(c1ccncc1)n1c-2nc2ccccc21 (stereo unspecified)
 : .	111.3	78.2	104.9
#8 COC(=O)NC(=Nc1c(C)cc(C)cc1C)C(F)(F)F
 : 2.6	81.1	88.8	.
#9 COc1ccc(OC)c(-c2csc(-c3nnn(-c4ccccc4)c3N)n2)c1
 : -2.9	.	.	115.8
#10 O=C(CSc1nc2ccccc2c(=O)n1CCCN1CCCCC1)NCCc1ccccc1
 : 1.3	122.8	102.1	101.0
#11 Cc1ccc(C(=O)OCCOc2ccccc2F)cc1
 : -35.8	106.3	83.5	.
#12 O=C(NC1CC(=O)N(c2ccccc2)C1)C1CCCC1 (stereo unspecified)
 : .	109.2	93.3	99.6
#13 Cc1[nH]c(=O)[nH]c(=O)c1S(=O)(=O)NC(C)C
 : -15.0	.	.	104.6
#14 Cc1cc2[nH]c(=O)c(=O)[nH]c2cc1S(=O)(=O)NCc1cccs1
 : -7.1	94.8	90.9	97.5
#15 CN1CCN(c2ccccc2NC(=O)Cn2cnc3onc(-c4ccc(F)cc4)c3c2=O)CC1
 : -24.5	111.0	90.1	104.1
#16 COc1ccc(-n2c(-c3ccc(F)cc3)cn3c4c(=O)n(C)c(=O)n(C)c4nc23)cc1
 : -31.0	90.1	87.8	103.9
#17 NCCCN(Cc1ccco1)C1CCCC1
 : -15.5	98.2	103.4	104.4
#18 COc1ccc(-c2cc3c(=O)n(CC(=O)Nc4ccccc4C(F)(F)F)ccn3n2)cc1OC
 : .	101.9	84.8	103.7
#19 Nc1ccc(N2CCN(c3ccc(C(F)(F)F)cn3)CC2)nc1
 : 0.0	98.9	102.1	106.9
#20 NNc1c(Cl)c(Cl)nc(C(=O)O)c1Cl
 : -27.8	85.7	89.0	.
#21 COc1ccc(-c2nc(SC)c(S(=O)(=O)c3ccc(C)cc3)[nH]2)cc1
 : .	87.1	66.1	97.5
#22 CS(=O)(=O)N1CCN(c2ccc(=O)n(-c3ccc(Cl)cc3)n2)CC1
 : -74.6	.	.	103.4
#23 CS(=O)(=O)c1ccc(C(=O)OCc2cc(=O)n3ccsc3n2)cc1
 : 19.6	99.5	98.2	.
#24 O=C(c1cnc2ccc(F)cc2c1Nc1ccccc1F)N1CCCCC1
 : -27.0	.	.	96.6
#25 O=C(OCc1nc2ccccc2s1)c1ccc(F)cc1F
 : -32.0	129.9	87.5	.
#26 COC(=O)c1cc2occc2n1Cc1nc(-c2ccc(Cl)cc2)oc1C
 : -34.2	102.3	84.4	106.8
#27 COc1ccc(-n2ncc3c2ncn2nc(Cc4ccccc4)nc32)cc1
 : 10.6	109.9	95.2	99.7
#28 Cc1ccc(S(=O)(=O)CC(=O)N(C)C)cc1
 : 2.9	87.9	100.5	95.0
#29 Cc1nn(C)cc1CNC(=O)c1ccccc1Br
 : -1.0	99.6	102.4	100.1
#30 CCOc1ccc2cc(C(=O)c3ccc(OC(F)F)cc3)oc2c1
 : -5.5	84.9	102.7	.

Among those listed so far, four contain an NH in an aromatic ring.
Fields – HCMV UL50-53 inh	Sa growth inh	Sa growth inh second temp	GIV Gai3 FP
#5 Nc1nc2c(c(=O)[nH]1)C(c1ccc(F)cc1)CC(=O)N2 (stereo unspecified)
 : -11.6	.	.	105.1
#13 Cc1[nH]c(=O)[nH]c(=O)c1S(=O)(=O)NC(C)C
 : -15.0	.	.	104.6
#14 Cc1cc2[nH]c(=O)c(=O)[nH]c2cc1S(=O)(=O)NCc1cccs1
 : -7.1	94.8	90.9	97.5
#21 COc1ccc(-c2nc(SC)c(S(=O)(=O)c3ccc(C)cc3)[nH]2)cc1
 : .	87.1	66.1	97.5

Remaining list, next part
Fields – HCMV UL50-53 inh	Sa growth inh	Sa growth inh second temp	GIV Gai3 FP
#31 CCOc1ccc(NC(=O)CS(=O)(=O)Cc2nc(-c3ccc(C)cc3)oc2C)cc1
 : -12.5	107.0	87.4	102.6
#32 CCCCN(C)CCCNC(=O)CN1C(=O)CSc2ccc(S(=O)(=O)N3CCOCC3)cc21
 : .	102.5	92.3	103.8
#33 COc1ccc(/C=N/NC(=S)Nc2c(C)n(C)n(-c3ccccc3)c2=O)cc1OC
 : -24.6	92.0	83.4	106.1
#34 COc1ccc(/C=C\c2onc(C)c2S(=O)(=O)N2CCC(C(=O)Nc3ccc(C)cc3C)CC2)cc1
 : -23.1	104.3	88.4	105.9
#35 Cc1nc(SCc2nc(-c3ccc(OC(C)C)cc3)oc2C)[nH]c(=O)c1C
 : -24.2	.	.	105.9
#36 O=C(O)/C=C/S(=O)(=O)c1ccccc1
 : -24.2	60.0	88.9	.
#37 O=C(CSc1nncs1)NC(=O)C1CCCCC1
 : -10.5	99.0	90.5	.
#38 CCOC(=O)c1cc(-c2ccc(OC)c(S(=O)(=O)N3CCN(c4ccccc4)CC3)c2)on1
 : .	93.8	94.5	105.0
#39 Cc1nn(CC(C)C)c(Cl)c1C(=O)N1CCCC1c1nc2ccccc2s1 (stereo unspecified)
 : -11.3	91.6	83.5	.
#40 O=C(NC1CC(=O)N(c2ccc(F)cc2)C1)C1CC1 (stereo unspecified)
 : .	96.1	94.1	98.5
#41 O=C(NC1CCCc2ccccc21)c1cccc(Nc2ccnc(-c3ccccc3)n2)c1 (stereo unspecified)
 : -13.7	.	.	109.0
#42 O=C1CCCc2c1n(CCN(Cc1ccccc1)Cc1ccccc1)c1ccc(Cl)cc21
 : .	78.3	90.5	104.6
#43 Cc1c(C(=O)N2CCC(C)CC2)sc2nc(-c3ccc(F)cc3)cn12
 : .	90.6	90.6	104.0
#44 O=C(Nc1ccc2c(c1)OCCO2)c1ncn[nH]1
 : -1.5	86.8	52.6	95.9
#45 CC(C)C(=O)Nc1ccc2nc(N3CCN(CC(=O)NC(C)(C)C)CC3)cc(C(=O)O)c2c1
 : -15.2	.	.	106.0
#46 Cc1ccc(Cl)cc1N1CCN(C(=O)c2[nH]c(C)c(S(=O)(=O)N3CCCC3)c2C)CC1
 : -36.8	.	.	109.1
#47 Cc1nnc(Nc2ccc(CC(N)=O)cc2)c2ccccc12
 : -12.5	90.9	101.2	107.6
#48 O=C(CC1CCCCC1)NCC1CCCO1 (stereo unspecified)
 : 7.0	82.7	74.6	106.8
#49 O=c1[nH]c(/C=C2\C=Nc3ccc(Br)cc32)c(O)n1Cc1ccc(Br)cc1
 : .	117.7	78.2	103.1
#50 NC(=O)c1c(NC(=O)c2cccc(Br)c2)sc2c1CCC2
 : 16.3	100.4	99.0	.
#51 O=C(Nc1ccc(N2CCn3c(nc4cc(Cl)ccc43)C2)cc1)NC1CCCCC1
 : -20.0	.	.	98.6
#52 O=C(c1ccccc1)N1CCN(C(c2ccccc2)c2ccccc2)CC1
 : -8.8	102.7	85.3	98.3
#53 O=C(CCCC1=NS(=O)(=O)c2ccccc2N1)OCc1ccc(Cl)cc1
 : .	90.0	70.0	101.4
#54 CCN1CCN(c2cc(=O)n3c(-c4ccc(C)cc4)csc3n2)CC1
 : -10.8	.	.	107.1
#55 CC[n+]1c(C)sc2cc(SC)c(OC)cc21
 : -14.8	1.8*	16.5*	.
#56 O=C(CC1CC2CCC1C2)N1CCN(S(=O)(=O)c2ccc(F)cc2)CC1 (stereo unspecified)
 : -13.2	102.1	89.9	101.1
#57 COc1ccc2c(CN(C)c3ccccc3)cc(=O)oc2c1
 : -16.9	87.3	92.8	.
#58 COC(=O)c1c(C)oc(C)c1S(=O)(=O)NCc1ccc(Cl)cc1
 : -11.4	95.0	83.8	104.7
#59 CCSC1=C(C#N)C(c2ccc(C)cc2)C(C(=O)OC)C(=O)N1 (stereo unspecified)
 : -17.2	89.5	80.6	101.9
#60 Cc1ccc(CN2C(=O)/C(=C\c3ccc(C(=O)N4CCN(c5ncccn5)CC4)cc3)Oc3ccccc32)cc1
 : -33.4	100.5	89.7	109.0

Three entries from above, ordered by heavy-atom count, smallest number first:
Fields – HCMV UL50-53 inh	Sa growth inh	Sa growth inh second temp	GIV Gai3 FP
#48 O=C(CC1CCCCC1)NCC1CCCO1 (stereo unspecified)
 : 7.0	82.7	74.6	106.8
#57 COc1ccc2c(CN(C)c3ccccc3)cc(=O)oc2c1
 : -16.9	87.3	92.8	.
#54 CCN1CCN(c2cc(=O)n3c(-c4ccc(C)cc4)csc3n2)CC1
 : -10.8	.	.	107.1

Next compounds.
Fields – HCMV UL50-53 inh	Sa growth inh	Sa growth inh second temp	GIV Gai3 FP
#61 Cn1c(C(=O)NCCc2ccccc2)cc2cc(S(=O)(=O)N3CCCCC3)ccc21
 : .	85.5	89.3	100.3
#62 O=C(Cn1cnc2ccccc21)c1ccccc1
 : -0.7	93.7	83.4	100.3
#63 Cc1cc(C(F)(F)F)nn1CC(=O)Nc1cc(Oc2cccnc2)cc([N+](=O)[O-])c1
 : -51.5	.	.	102.6
#64 CC(Sc1nc2ccccc2n1Cc1ccccc1)C(=O)O (stereo unspecified)
 : -11.8	94.0	74.3	95.5
#65 CC1CCCC(C)N1C(=O)COC(=O)c1ccc(C(F)(F)F)cc1 (stereo unspecified)
 : 19.5	93.5	100.2	.
#66 CSc1ccc(S(=O)(=O)NC2CCCCC2)cc1
 : 0.8	101.2	89.4	108.7
#67 COc1ccccc1N1CCN(c2ncc3c(n2)CCN(Cc2ccccc2C)C3)CC1
 : .	96.5	89.4	104.5
#68 Cn1c(=O)c2c([nH]c(=S)n2CC2CC2)n(C)c1=O
 : -16.1	.	.	97.5
#69 O=C(NCCOCCn1c(=O)oc2ccccc21)Nc1ccc(F)cc1F
 : -26.0	104.1	87.7	97.7
#70 CC1Cc2ccccc2N1S(=O)(=O)c1nnc(NC(=O)c2cccc(F)c2)s1 (stereo unspecified)
 : -30.6	94.8	54.1	107.3
#71 CCOC(=O)N1CC=C2C(C#N)=C(N)C(C#N)(C#N)C(Cc3ccccc3)C2C1 (stereo unspecified)
 : -29.6	80.2	74.0	119.4
#72 CCOC(=O)C1CCC(CNC(=O)Nc2ccc3nc(N4CCN(C)CC4)cc(C)c3c2)CC1 (stereo unspecified)
 : -14.4&-0.5	102.9	89.8	107.3&103.7
#73 COc1ccc(/C=C2/SC(=S)N(C)C2=O)cc1
 : .	99.9	90.2	105.4
#74 COc1ccc(OC)c(S(=O)(=O)N2CCOCC2)c1
 : 10.6	98.1	98.4	106.6
#75 COc1ccc(CC(=O)N2N=C(c3ccncc3)CC2(O)C(F)(F)F)cc1 (stereo unspecified)
 : 15.5	86.2	94.3	108.6
#76 O=C1CC(SC(=Nc2ccccc2)Nc2ccccc2)C(=O)N1CCc1ccccc1 (stereo unspecified)
 : -16.5	91.2	84.7	.
#77 CCC(C(=O)NC1CCN(Cc2ccccc2)CC1)N1CCN(Cc2ccc(F)cc2)C(=O)C1=O (stereo unspecified)
 : -14.4	.	.	108.3
#78 O=C(NCCS(=O)(=O)N1CCN(c2ccccc2)CC1)C(c1ccccc1)c1ccccc1
 : .	100.4	92.9	102.4
#79 CCOc1ccc2nc(C(=O)N3CCCC(C)C3)sc2c1 (stereo unspecified)
 : .	84.6	90.9	110.7
#80 O=C1c2ccccc2C(=O)c2c(NC3CCCCC3)ccc(Nc3ccc(Oc4ccccc4)cc3)c21
 : -5.9	.	.	103.6
#81 CC(=O)N1CCN(c2cc(N3CCOCC3)nc(C)n2)CC1
 : -32.8	.	.	100.9
#82 CN(C)c1cc(C(=O)O)ccn1
 : -22.3	95.5	89.7	102.8
#83 Cc1cc(C)c(NS(=O)(=O)c2ccc3c(c2)NC(=O)CCS3)c(C)c1
 : .	107.0	82.1	105.6
#84 CCOc1ccc(CNC(=O)c2cnc3c(C)cccn3c2=O)cc1
 : .	103.7	91.8	104.5

Random draw from the library. Share with any hit: about 0.85%.
